Screens as filed in PubChem BioAssay.
AID504770: E. coli YBA685 growth inhibition, screen for V. cholerae RctB inhibitors | actives 0.27% (n = 130,000) | E. coli YBA685 rctB-dependent plasmid, OD600 growth, 3 h; stronger effect = lower value | z-score (no concentration beside the values);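 active means z-score under -2 on both plates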;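 further: wells of about 30 µL received 100 nL stock; score is relative to mean and SD of the test wells; the first replicate is given; strong numbers were not always called active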
CapD inh: inhibitors of Bacillus anthracis CapD enzyme; purified CapD enzyme, fluorescence intensity read-out; stronger effect = lower value; some hits fall short of the stated cut; z-score (concentration not given with the values); actives 0.23% (n = 140,000); AID 492967;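 active means z-score under -4 in either of two replicates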;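 further: stock transfer was 100 nL into about 40 µL; score is relative to mean and spread of the plate; one replicate is shown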
Starred values were filed as active, the others as inactive; / = not tested or not shown; & = joins results of further samples.

Each structure is followed by: AID504770, CapD inh
- CC(C)(C)NC(=O)c1cc(NC(=O)C(F)(F)F)cc(NC(=O)C(F)(F)F)c1
  0.3, -0.03
- COc1cc2c(C#N)c(N3CCCCC3)nc3c2c(n1)NC1(N3)C(=O)Nc2ccccc21 (stereo not given)
  2.15, /
- Nc1ccnc(C(=O)O)c1
  -0.45, /
- CC(=O)Nc1ccc(S(=O)(=O)NCC2CCC(C(=O)N3CCN(c4ccccn4)CC3)CC2)cc1 (stereo not given)
  -0.25, 8.36
- CCC1CCCCN1C1CC(=O)N(c2ccc(NC(C)=O)cc2)C1=O (stereo not given)
  -0.25, /
- Cc1ccc(C(=O)N[C@@H](C)c2nc3ccccc3[nH]2)cc1
  -0.5, /
- Oc1c(C=Nc2cccc(C(F)(F)F)c2)oc2ccc3ccccc3c12
  /, -0.04
- O=c1c(Cl)c(Cl)cnn1CN1CCN(Cc2ccc3c(c2)OCO3)CC1
  0.85, /
- Nc1nnc2c(n1)-c1ccccc1C2=O
  -0.4, 0.495
- Cc1cccc(N(C)C(=O)C2CCCN2S(=O)(=O)c2cccc3nsnc23)c1 (stereo not given)
  -0.25, 0.57
- CSc1nnc(-c2cccs2)n1C
  /, 0.08
- COc1cc(OC)c(C(=O)OCC(=O)c2c[nH]c3ccccc23)cc1OC
  0.1, /
- COc1ccc(CCN2C(=O)CSC2=S)cc1OC
  0.5, 0.01
- NC(=S)c1cc(C(F)(F)F)cc(C(F)(F)F)c1
  /, -0.435
- CCCCCCCNC(=O)c1cccnc1SCc1ccccc1Cl
  /, -0.58
- C=CCOc1ccc(CN(C)Cc2cccc(S(=O)(=O)N(C)C)c2)cc1
  -1, /
- Fc1cccc(F)c1CSc1nnc(-c2ccco2)n1-c1ccccc1
  /, 6.08
- CC(C)CCNCC(O)Cn1c2ccc(Br)cc2c2cc(Br)ccc21 (stereo not given)
  /, -1.19
- O=C(C(Cc1ccccc1)N1Cc2ccccc2C1=O)N1CCNCC1 (stereo not given)
  -0.55, -0.29
- CCOc1cc(C2C(C#N)=C(N)Oc3n[nH]c(C(C)C)c32)cc([N+](=O)[O-])c1OC(=O)N1CCOCC1 (stereo not given)
  /, -0.06
- N#CC(NC(=O)c1ccccc1Cl)c1ccc(Cl)cc1 (stereo not given)
  1.9, -0.505
- CN(C)c1ccc(-c2nnc(-c3ccc(S(=O)(=O)C(F)F)cc3)o2)cc1
  0.7, /
- O=C(NNC(=O)c1cc2ccccc2s1)OCc1cccc(Oc2ccccc2)c1
  /, 3.38
- CCC(CO)Nc1ncnc2c1cnn2-c1ccc(Cl)cc1 (stereo not given)
  -1.3, /
- COc1cc(C(=O)N2CCN(c3ccc(NCc4ccccc4)nn3)CC2)cc(OC)c1OC
  0.3, /
- COCc1nc2ccccc2c2c1C(=O)N(CCc1c[nH]c3ccccc13)C2=O
  /, -0.645
- O=C(c1cc2ccccc2oc1=O)N(Cc1ccc2c(c1)OCO2)CC1CCCO1 (stereo not given)
  -0.85, /
- COc1cccc(CNC(=O)Cn2ncc3c4ccccc4n(Cc4ccccc4F)c3c2=O)c1
  -0.35, 0.68
- Cc1cc(OCCCC(=O)O)cc(C)c1Cl
  1.1, -0.69
- CN1CCN(CCCNC(=O)c2ccc3c(Cl)c4c(nc3c2)CCCC4)CC1
  0.5, 0.065

Complete entries from above. Order of values: AID504770, CapD inh
NC(=S)c1cc(C(F)(F)F)cc(C(F)(F)F)c1 in the list: /, -0.435
CCC(CO)Nc1ncnc2c1cnn2-c1ccc(Cl)cc1 (stereo not given) in the list: -1.3, /
COCc1nc2ccccc2c2c1C(=O)N(CCc1c[nH]c3ccccc13)C2=O in the list: /, -0.645
Nc1ccnc(C(=O)O)c1 in the list: -0.45, /
COc1cc2c(C#N)c(N3CCCCC3)nc3c2c(n1)NC1(N3)C(=O)Nc2ccccc21 (stereo not given) in the list: 2.15, /

Individual results from the list.
N#CC(NC(=O)c1ccccc1Cl)c1ccc(Cl)cc1 (stereo not given) – CapD inh: -0.505
Cc1ccc(C(=O)N[C@@H](C)c2nc3ccccc3[nH]2)cc1 – AID504770: -0.5

More results
Each structure is followed by: AID504770, CapD inh
- CCC(c1ccccc1)c1nc(-c2ccncc2)no1 (stereo not given)
  -0.95, -0.065
- COc1ccc(CNc2ncnc3cc(OC)c(OC)cc23)cc1OC
  /, 1.45
- CN1C(=O)NC(=O)/C(=C\C=C\c2ccccc2)C1=O
  -0.35, -0.135
- COc1cc2c(cc1OC)C(CCl)=NC(C)(C)C2
  /, 17.4
- Nc1nc2ccccc2n1C(=O)c1ccco1
  0.4, 0.265
- CN(CC(=O)NCC1CCCCC1)S(=O)(=O)c1ccc(F)cc1
  0.15, /
- C=C(C)CN(CC)C(=O)Cn1c(NCc2ccccc2)nc2ccccc21
  -0.05, /
- CCc1ccn2cc(-c3ccc(F)cc3)nc2c1
  1.4, 87.8
- CCC1=C(c2ccc(C)cc2)S(=O)(=O)NC1=NCC(=O)NC1CC1
  -0.2, 0.875
- CN(C)c1ccc(C(=O)CC2(O)C(=O)N(Cc3cccc4ccccc34)c3ccccc32)cc1 (stereo not given)
  /, 0.88
- COCCNc1nnc(SCN2C(=O)c3ccccc3C2=O)s1
  0.85, /
- NC(=O)CN1C(C(=O)c2ccccc2)=C(N2CCOCC2)c2ccccc2S1(=O)=O
  -0.05, -0.665
- Cc1ccc(-c2csc(/C(C#N)=C(\O)CSc3ncn[nH]3)n2)cc1
  0.55, /
- COc1ccc(C(=O)C2CCN(CC(=O)NCc3ccc(F)cc3)CC2)cc1
  -0.15, /
- Oc1[nH]c2ccccc2c1C=NC1CCCC1
  -1, -2.58
- C1C2C3C4OC5C3C1C1C2C4C51 (stereo not given)
  -0.15, /
- CCc1c(C#N)c(SCC(=O)c2cc(C)n(CCOC)c2C)nc2c1C(=O)CC(C)(C)C2
  -0.45, -0.28
- NS(=O)(=O)c1ccc(-c2ccc(/C=N/NC(=O)c3cccnc3)o2)cc1
  -0.55, /
- O=C(Nc1ccc(OC(F)(F)F)cc1)N1CCN(C(c2ccccc2)c2ccccc2)CC1
  -0.25, -0.01
- COc1ccc(C(=O)OCC(=O)N2CC(C)CC(C)C2)cc1 (stereo not given)
  0.2, 0.025
- C1N2CN3CN1CN(C2)C3
  -0.3, 0.64
- O=C(Nc1cccn2c(-c3ccc(Cl)cc3)cnc12)c1ccccc1F
  /, -0.7
- Cc1cccn2c(=O)c(C=C(C#N)C#N)c(N3CCCC3)nc12
  1.6, /
- O=C(c1ncn[nH]1)N(Cc1cc2ccccc2[nH]c1=O)c1ccccc1
  -0.05, 16.1
- CCOC(=O)c1c(NC(=O)NCc2ccccc2)sc2c1CCC2
  0.05, 0.575
- COc1ccc(C(=O)Nc2cccc(-c3nc4ccccc4s3)c2)cc1
  0.45, 8.34
- Cc1nc(-c2c[nH]c(C(=O)O)c2)cs1
  0.3, /
- O=C(Nn1c(-c2cccs2)nc2ccccc2c1=O)c1cc([N+](=O)[O-])cc([N+](=O)[O-])c1Cl
  /, -1.05
- CC(C)(C)c1csc(NC(=O)CSC2=NCCS2)n1
  -0.8, /
- OC(c1ccccc1)C(O)(c1ccccc1)c1ccccc1 (stereo not given)
  -0.2, -0.09

Each structure is followed by: AID504770, CapD inh
- O=C(O)c1cnn(-c2ccc(Cl)cc2)c1C1CCNCC1
  -0.7, -0.275
- COC(=O)C(=NNc1ccc(SC(F)(F)F)cc1)C(=O)OC
  -0.15, /
- O=C(CN1CCC(n2cnc3cc(F)ccc32)CC1)NCc1ccc(F)cc1
  0.2, /
- CCOc1cccc(C(=O)N/N=C/c2c(C)nn(-c3ccccc3)c2C)c1
  /, -0.875
- Cc1cc2ccccc2n1CCNC(=O)c1ccc(Br)o1
  -0.7, 0.58
- CCc1ccc(NC(=O)C(CC)Sc2nc3ccsc3c(=O)n2C2CC2)cc1 (stereo not given)
  -0.4, 1.01
- CCOc1cccc(NC(=O)CC#N)c1
  -0.8, 0.2
- CC(CCc1ccccc1)NCc1c(C(=O)O)[nH]c2ccccc12 (stereo not given)
  -0.3, 0.155
- N#Cc1ccc(Sc2nc3ccccc3[nH]2)cc1C#N
  0.2, -0.27
- CCCn1c(CCC(=O)NCCc2ccc(OC)cc2OC)nc2cccnc21
  -0.65, 0.295
- COc1ccc(NC2=NC(C)(C)Cc3ccccc32)cc1
  /, -0.45
- Cn1c(Sc2ncccc2[N+](=O)[O-])nnc1C(F)(F)F
  /, -0.705
- Cc1nn(-c2ccccc2)c(C)c1Sc1ccccc1
  -0.35, 80.1
- CCOC(=O)C1CCCN(S(=O)(=O)Cc2ccccc2Cl)C1 (stereo not given)
  -0.3, -0.025
- COCCCCOC(=O)NCCc1c[nH]c2ccc(OC)cc12
  /, -0.305
- COc1ccc(C(=O)NNc2ncnc3c2cnn3-c2ccc(F)cc2)cc1
  1.95, /
- Cc1ccc(S(=O)(=O)N(CC(O)CN2CCCC2)c2cccc3ccccc23)cc1 (stereo not given)
  /, 0.285
- COc1cc(/C=N/NC(=O)Nc2ccccc2)ccc1OC(=O)OC(C)(C)C
  /, 0.095
- CN(C(=O)C1c2ccccc2C(=O)N2CCc3ccccc3C12)C1CCCCC1 (stereo not given)
  -0.15, -0.31
- CCOC(=O)N1CCC(NC(=O)CN2C(=O)CCSc3ccccc32)CC1
  -0.25, 0.355
- Cc1c(Cl)cccc1NC(=O)c1ccc(-n2cccn2)c([N+](=O)[O-])c1
  /, 2.56
- CCn1c(O)c(C=NCCn2c(C)nc3ccccc32)c(=O)n(CC)c1=S
  -0.25, /
- COc1cc(C(=O)NNC2=CC(=O)CC(C)(C)C2)cc(OC)c1OC
  0.15, /
- COc1ccc(C=Nc2ccc(OCC(O)CN3C(C)CCCC3C)cc2)cc1OC (stereo not given)
  1.4, -0.89
- CC1(C)CNC(=O)C=C(c2ccccc2)C1
  -2.65, -2.2
- COc1cccc(CNC(=O)c2cn(C)c(=O)c3c2c2ccccc2n3C)c1
  -0.4, 21.5
- CNC(=S)N/N=C/c1cc(Br)ccc1O
  /, 1.35
- Cc1nc2nc(C(F)(F)F)cc(=O)n2[nH]1
  -0.15, -0.17
- O=C(N=Nc1c(O)[nH]c2ccccc12)c1ccccc1
  /, -1.24
- Cc1cccc(Nc2nc3nonc3n3c(C)nnc23)c1C
  /, 6.09

Each structure is followed by: AID504770, CapD inh
- COc1ccc(N2C(=NC(=O)CCCC(=O)O)SC3CS(=O)(=O)CC32)cc1 (stereo not given)
  -0.8, 0.035
- O=C(Nc1ccc(Cl)cc1)Nc1ccc(N2CCOCC2)cc1
  1.95, /
- COc1ccccc1NC(=O)N=S1CCN(C(=O)c2ccc(Cl)cc2)CC1
  0.3, 0.89
- Cc1cccc(C(=O)Oc2ccc(-c3nccc(-c4cccs4)n3)cc2)c1
  /, 0.415
- COc1ccc(NC(=O)c2c(NC(=O)c3cccc(Br)c3)sc3c2CCCCC3)cc1
  /, 0.575
- COc1cccc(C(=O)NCc2nnc(SCC(=O)N3CCc4ccccc43)n2-c2cccc(C(F)(F)F)c2)c1
  /, -0.77
- C=CCN(CC=C)C(=O)C[n+]1ccc(C(N)=O)cc1
  -4*, 0
- O=S(=O)(c1cccs1)N1CCN(c2ccccc2)CC1
  /, -0.26
- CNCC(=O)NC(c1ccccc1)c1ccccc1
  -1.25, /
- CC(=O)Nc1ccc(SCC(=O)/C(C#N)=C(\C)N)cc1
  -0.2, /
- COc1ccc(NC(=O)C(NS(=O)(=O)c2ccc3c(c2)c(=O)n(C)c(=O)n3C)c2ccccc2)cc1 (stereo not given)
  0.45, 0.205
- O=C(O)CC1C(=O)NC(=Nc2ccccc2)N1c1ccccc1 (stereo not given)
  -0.5, /
- CCOc1ccc(Cc2nccc3cc(OCC)c(OCC)cc23)cc1OCC
  1.3, -0.285&-0.075
- Cc1ccc2nc(SCC(=O)Nc3ccc4c(c3)C(=O)c3ccccc3C4=O)[nH]c2c1
  /, 0.475
- Cc1onc(-c2c(Cl)cccc2Cl)c1C(=O)Nc1ccc2c(c1)OCCO2
  /, 0.195
- COc1cc(/C=C/C(=O)NNC(=O)c2ccccc2COC(=O)c2ccccc2)cc(OC)c1OC
  /, 3.37
- CCc1ccc(NC(=O)CCS(=O)(=O)c2ccc3c(c2)NC(=O)CS3)cc1
  0.7, 0.075
- CCn1nnnc1SCC(=O)Nc1ccccc1
  -0.85, /
- O=C(O)c1c(CNCCc2ccc(Cl)cc2)c2ccccc2n1Cc1ccccc1
  -0.65, -0.495
- CCCCSc1nnc(CSc2ncccn2)n1CCc1ccccc1
  -0.9, /
- Cc1cc(C)cc(Oc2c(C(F)(F)F)oc3c(CN4CCN(C)CC4)c(O)ccc3c2=O)c1
  /, -0.625
- O=C(O)c1ccccc1C(=O)NCCNc1ccc(C(F)(F)F)cn1
  /, 0.135
- CCOC(=O)Cn1cc(/C=C2\C(=O)NC(=S)N(c3cccc(Cl)c3Cl)C2=O)c2ccccc21
  /, -0.31
- O=C(O)CCC(=O)Nc1ccccc1N1CCCCC1
  -0.4, /
- O=C1Nc2ccccc2/C1=N\N1CCN(Cc2cccc3ccccc23)CC1
  -0.95, -0.68
- COc1nc(-c2ccccc2)nc(Cl)c1NC(=O)c1cccs1
  -0.45, 0.01
- Cc1c(C(=O)N2CCCCC2)sc2nc(C(F)(F)F)nn12
  -0.85, -0.105
- COc1ccc(Nc2ccccc2Cl)cc1
  -0.95, -0.325
- COC(=O)Nc1nnc(COc2cccc(C)c2)s1
  1.3, -0.585
- CC(=O)C1=NN(c2ccccc2C)C2(S1)c1ccccc1C(c1ccc(C)cc1)=NN2c1ccccc1 (stereo not given)
  /, -0.285
- CC(c1ccccc1)n1c(CO)nc2ccccc21 (stereo not given)
  -0.2, 0.12
- Cc1c(C)c(C)c(CS(=O)(=O)CC(=O)Nc2ccc(F)c(Cl)c2)c(C)c1C
  1, 0.715
